# Source: PubChem
# Cruzain Triton: qHTS Assay for Promiscuous and Specific Inhibitors of Cruzain (with detergent); Cruzipain (Trypanosoma cruzi), P25779; purified cruzain, Z-FR-AMC fluorescence, 0.01% Triton; Potency, µM, without a hit: max response, negative = inhibition, usual class: inhibitors; 200,000 compounds, 0.43% hits;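 further: plate controls were neutral wells for no effect and buffer without enzyme for full effect; nearly all actives have a fitted effect of over 40% in size; top concentration of the series not given in the record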
# Target sequence (P25779 123-467 limits assumed): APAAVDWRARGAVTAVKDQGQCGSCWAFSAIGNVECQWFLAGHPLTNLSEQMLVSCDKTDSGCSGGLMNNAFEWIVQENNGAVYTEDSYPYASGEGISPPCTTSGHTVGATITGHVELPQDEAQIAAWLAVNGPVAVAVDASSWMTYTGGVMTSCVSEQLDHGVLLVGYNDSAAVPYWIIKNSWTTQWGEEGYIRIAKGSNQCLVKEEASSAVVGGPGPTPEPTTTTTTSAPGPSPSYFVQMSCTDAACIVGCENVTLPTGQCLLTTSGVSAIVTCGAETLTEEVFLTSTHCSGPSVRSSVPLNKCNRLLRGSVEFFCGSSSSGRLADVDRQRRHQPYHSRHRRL
#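 Detergent-containing run (0.01% Triton X-100) in acetate buffer pH 5.5 with 5 mM DTT: enzyme at 1.5 nM final, 15 min compound preincubation at room temperature, then 2 uM Z-FR-AMC substrate. Activity taken as 60 s fluorescence increase at 360/450 nm.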
# NS1 inh: qHTS Assay for Inhibitors of Influenza NS1 Protein Function. S. cerevisiae slowed by influenza A NS1, growth recovery by OD600. Potency, µM (series often up to 46.1 µM), inactives show at the highest dose activity, positive = more growth. 270,000 compounds, 0.4% hits. AID 2326, 2010; active means well fitted rising curve with a large enough effect; inconclusive means small, poorly fitted or top-dose-only effect; inactive means no such curve, though single readings can be large or run the other way; further: nearly all actives have a fitted effect of over 50% in size
#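 In this qHTS, NS1 from influenza A is expressed in budding yeast, where it slows growth. Cells are switched from glucose to 2% galactose medium (pH 6.0, -URA), treated with compound, and growth recovery is read at OD600.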
# MARV entry inh: qHTS for inhibitors of binding or entry into cells for Marburg Virus | Marburg virus pseudotyped entry inhibition, cell reporter; control for the full effect not named in the record; about a third of the inactives were read at about 46 µM | Potency, µM (highest dose often 37.8 µM), without a hit: at the highest dose activity change, negative = inhibition, usual class: inhibitors | 300,000 compounds, 1.8% hits | AID 540276, 2011; active = well fitted inhibition curve with a large enough effect; inconclusive = small, poorly fitted or top-dose-only effect, or effect the other way; inactive = flat fitted curve, though single readings scatter; tested in HEK293 cells; about a fifth of its hits are not listed in these tables; further: on the % scale 0 is the no-effect control and ±100 the full control effect; luciferase read-out
# SARS PLpro yeast: qHTS of Yeast-based Assay for SARS-CoV PLP. Potency, µM (doses to about 32.9 µM), inactives show at the highest dose activity, positive = growth rescue. 330,000 compounds, 0.19% hits. S. cerevisiae expressing SARS-CoV PLpro, growth rescue; control for the full effect not named in the record; active means well fitted rising curve with a large enough effect; inconclusive means small, poorly fitted or top-dose-only effect; inactive means no such curve, though single readings can be large or run the other way; further: 0% is about no effect; nearly all actives have a fitted effect of over 55% in size; growth read by luminescence after 48 h
# 2A StopGo: High Throughput Screening for Foot and Mouth Disease Virus Antivirals. human cells with a luciferase reporter of 2A StopGo recoding; control for the full effect not named in the record. 410,000 compounds, 1.2% hits. Potency, µM (series often up to 57.9 µM), without a hit: at the top dose signal change, negative = less light. AID 1159524, 2015; active = well fitted falling curve with a large enough effect; inconclusive = small, poorly fitted or top-dose-only effect; inactive = no such curve, though single readings can be large or run the other way; tested in HEK293T cells; further: on the % scale 0 is the no-effect control and ±100 the full control effect; nearly all actives have a fitted effect of over 45% in size; luciferase light after 4 h
# Cruzain noTriton: qHTS Assay for Promiscuous and Specific Inhibitors of Cruzain (without detergent); Cruzipain (Trypanosoma cruzi), P25779; purified cruzain, Z-FR-AMC fluorescence, no detergent; Potency, µM, inactives show max response, negative = inhibition, actives largely listed as inhibitors; 200,000 compounds, 2.3% hits;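 further: plate controls were enzyme without inhibitor for no effect and buffer without enzyme for full effect; nearly all actives have a fitted effect of over 40% in size; top concentration of the series not given in the record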
#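 Detergent-free condition (0.00005% Triton X-100) in acetate buffer pH 5.5 with DTT. 1.5 nM enzyme and compound were pre-mixed 15 min, then 2 uM Z-FR-AMC substrate added; reaction progress from fluorescence change between first and third reads (60 s).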
# RE007 growth inh: qHTS Assay for Inhibitors of the HIV-1 protein Vpr; S. pombe RE007 Vpr strain, BacTiter-Glo ATP luminescence, 24 h; control for the full effect not named in the record; Potency, µM (titrated, usually from 92.2 µM), for inactives: at the top dose activity change, negative = less growth; 360,000 compounds, 0.21% hits; AID 651644, 2012; active = well fitted falling curve with a large enough effect; inconclusive = small, poorly fitted or top-dose-only effect; inactive = no such curve, though single readings can be large or run the other way;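 further: on the % scale 0 is the no-effect control and ±100 the full control effect; nearly all actives have a fitted effect of over 50% in size; the assay follows cell death caused by Vpr and the record does not say whether a fall means rescue or toxicity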
#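 Fission yeast strain RE007, carrying one chromosomally integrated HIV-1 vpr copy, was seeded at OD 0.01 in PMG+AL medium with 23 nL pinned compound. After 24 h at 30 °C and 99% humidity, viability was read by BacTiter-Glo luminescence.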
# LASV entry inh: qHTS for Inhibitors of binding or entry into cells for Lassa Virus. 300,000 compounds, 1.2% hits. Potency, µM (series often up to 37.9 µM), for inactives: at the top dose activity change, negative = inhibition, actives largely listed as inhibitors. Lassa virus pseudotype entry inhibition, cell reporter; control for the full effect not named in the record; active means well fitted inhibition curve with a large enough effect; inconclusive means small, poorly fitted or top-dose-only effect, or effect the other way; inactive means flat fitted curve, though single readings scatter; tested in HEK293 cells; further: on the % scale 0 is the no-effect control and ±100 the full control effect; nearly all actives have a fitted effect of over 50% in size; luciferase read-out
# * = called active by the depositor; ? = inconclusive; . = not tested or not shown; & = joins results of further samples; [ ] = remark or other dose. Unless noted, the call rests on the fitted dose curve; in most records, active means well fitted curve in the direction sought with a large enough effect; inconclusive means small, poorly fitted or top-dose-only effect, or another doubt; inactive means no such curve, though single readings can be large; an effect the other way counts as inactive or inconclusive. Potency means the concentration at half of the fitted maximal effect.
SMILES,Cruzain Triton,NS1 inh,MARV entry inh,SARS PLpro yeast,2A StopGo,Cruzain noTriton,RE007 growth inh,LASV entry inh
Cc1cc2oc(C(=O)Nc3sc4c(c3C(=O)NCC3CCCO3)CCC4)cc(=O)c2cc1C (stereo not given),-1.4%,.,30%[46.1 µM],.,4%,-16%,.,19%[46.1 µM]
Cc1cc(C)c(C)c(S(=O)(=O)NCC(=O)NCC2CCCCC2)c1C,.,10%,?,-4%,34%[activator],.,4%,-12%[46.1 µM]
Cc1ccc(/C=c2\sc3n(c2=O)CN(c2cccc(Br)c2)CN=3)o1,-4.9%,12%,16%,3%,-6%,?,4%,15%
CCOC(=O)C1=C(CBr)NC(=O)NC1C (stereo not given),.,.,7%[46.1 µM],1%,-13%,.,-26%,.
CCN1C(=O)C(O)(c2c[nH]c3ccccc23)c2cc(Br)ccc21 (stereo not given),-6.1%,.,?,.,-20%,-7%,.,9%[46.1 µM]
Cc1[nH]c(=O)[nH]c(=O)c1Sc1ccccc1[N+](=O)[O-],.,2%,-2%[46.1 µM],2%,22%,.,-12%,1%[46.1 µM]
O=C(c1ccccc1NS(=O)(=O)c1ccc(F)cc1F)N1CCCCC1,.,.,3%[46.1 µM],-10%,30%,.,-9%,-8%[46.1 µM]
O=C(COc1ccccc1)NCC(=O)NC1CCCCC1,.,.,2%,2%,0%,.,2%,-3%
O=C(NCCc1ccccc1)C1CCN(S(=O)(=O)c2cccc3nonc23)CC1,2.2%,0%,7%[46.1 µM],-3%,-17%,-4%,22%,14%
O=c1[nH]c2ccc(Br)cc2c(-c2ccccc2)c1CN1CCOCC1,-4.6%,16%,.,2%,-24%,-10%,5%,.
CCOC(=O)C(=CNc1cc(C)nn1-c1ccc(Cl)cc1)C(=O)OCC,-7.6%,8%,-29%[46.1 µM],5%,-22%,?,-3%,?
O=S(=O)(NCC1(N2CCOCC2)CCCCC1)c1ccccc1Cl,.,.,-4%,-1%,21%,.,-13%,-2%
O=C(NCCc1ccc(Cl)cc1)c1ccc(Cn2c(=O)[nH]c3ccccc3c2=O)cc1,1.5%,.,.,4%,-24%,1%,.,-8%[46.1 µM]
COc1ccc(/C=N/NC(=S)N[C@H]2CC3CCC2C3)cc1 (stereo not given in full),.,1%,-3%[46.1 µM],2%,-12%,.,-5%,-22%
Cc1ccc(NC2CCCCC2NS(=O)(=O)c2ccccc2)c(C)c1 (stereo not given),.,-5%,.,-8%,-24%,.,27%,.
O=C(CCNC(=O)c1ccco1)Nc1ccc(OC(F)(F)F)cc1,.,0%,-1%[46.1 µM],0%,17%,.,9%,-2%
COc1c2occc2cc2ccc(=O)oc12,-3.5%&2.8%&1.3%&-1.3%&-1.9%,-16%,.,-2%,-14%&-5%,2%&-5%&-9%&-2%&-6%,4%,.
CN(C)c1ccc(/C=C/c2nc3ccccc3c(=O)n2-c2ccc(C(=O)O)cc2)cc1,.,14%,-21%[46.1 µM],-2%,-27%,.,-4%,-21%
CC(/C=C/c1ccco1)=N\NC(=O)c1cc(Cl)ccc1O,.,0%,5%[46.1 µM],?,23%,.,-17%,-2%[46.1 µM]
Cc1nc(C)c(Oc2cccc(C(F)(F)F)c2)c(=O)[nH]1,.,0%,13%[46.1 µM],1%,24%,.,19%,24%
N#CC1=C(N)NC(=S)C(C(N)=O)C1c1ccccc1F (stereo not given),.,-12%,?,2%,16%,.,-23%,?
COc1ccccc1N1CCN(/N=C/c2ccc(Cl)c([N+](=O)[O-])c2)CC1,.,-16%,.,-8%,27%,.,5%,.
COc1ccccc1NC(=O)CSc1nc(-c2cccc(Cl)c2)nc2c1Cc1c(CO)cnc(C)c1O2,-1.8%,.,.,.,-25%,9%,.,11%[46.1 µM]
O=C(c1cnccn1)N(c1ccccc1)C1(C(=O)NC2CCCCC2)CCCCC1,4.1%,0%,?,-3%,-15%,-6%,-7%,1%
COc1ccc(N=Nc2ccc(O)c(P(=O)(c3ccccc3)c3ccccc3)c2)cc1,.,0%,.,0%,9%,.,-3%,.
CCOC(=O)c1ccc(NC(=O)c2nc[nH]c2C(=O)N2CCc3ccccc3C2)cc1,.,-2%,.,-1%,-4%,.,-18%,.
Cn1cc(S(=O)(=O)NCc2ccc(Cl)cc2)c(=O)n(C)c1=O,.,12%,5%[46.1 µM],-4%,0%,.,5%,-1%
Cc1cccc(C(=O)N2CCNC(=O)C2CC(=O)Nc2ccc(F)cc2)c1 (stereo not given),-2.4%,.,-22%[46.1 µM],.,-27%,6%,.,-4%[46.1 µM]
Cc1ccc(C(=C2C3C=CC2C2C(=O)NC(=O)C32)c2ccc(C)cc2)cc1 (stereo not given),-22%,-5%,-28%,-1%,-3%,4%,1%,?
COc1ccc(CN2CCNC(=O)C2CC(=O)NC2CC(C)(C)CC(C)(C)C2)cc1OC (stereo not given),.,21%,.,0%,1%,.,-2%,.
O=C1CC(c2cccc(Cl)c2)CC(O)=C1C=Nc1ccccc1 (stereo not given),-9.6%,-4%,-32%,14%,-19%,-6%,-11%,-13%
CCn1c(SCC(=O)NNC(=O)c2ccccc2)nnc1-c1ccco1,.,.,2%[46.1 µM],4%,-4%,.,-1%,13%
CN(C)c1ccc(NC(=S)c2ccccn2)cc1,-6.9%,-34%,0.82µM*,-27%,2.8µM*,6%,?,0.89µM*
COc1cccc(N2CCN(C(=O)c3ccc(-c4ccccc4)cc3)CC2)c1,.,-2%,.,-1%,-6%,.,15%,.
O=C(CSc1nnc(-c2ccccn2)o1)Nc1ccccc1C(F)(F)F,.,4%,?,-5%,18%,.,5%,-14%[46.1 µM]
Cc1ccc(C2CC(c3ccc(Br)cc3)=NN2C(=O)CSC2=NN3CCCC(=O)N=C3S2)cc1 (stereo not given),.,-5%,.,-2%,3%,.,-4%,.
CSc1nccc(-c2c(-c3ccc(Cl)cc3)noc2C)n1,.,-7%,.,-2%,-31%,.,-2%,.
CNC(=O)NC(=O)C(C)Oc1ccccc1F (stereo not given),.,.,9%,0%,-13%,.,7%,34%
COCCCn1c(SCc2nnc(-c3ccc(OC)c(OC)c3)o2)nc2ccccc2c1=O,-4.4%,-2%,-3%,10%,.,?,-1%,?
CCOc1ccc(C2c3c(oc4ccc(C)cc4c3=O)C(=O)N2CCCN2CCOCC2)cc1 (stereo not given),-0.2%,.,.,.,17%,0%,.,14%[46.1 µM]
CCC(Sc1nc2ccccc2[nH]1)C(=O)Nc1ccc(NC(C)=O)cc1 (stereo not given),.,3%,9%[46.1 µM],1%,13%,.,-9%,0%[46.1 µM]
O=c1[nH][nH]c(-c2ccccc2O)c1C(C[N+](=O)[O-])c1cccc(Cl)c1 (stereo not given),-6.5%,-31%,-27%,10%,-3%,4%,-12%,?
Cc1oc2c(O)c(O)ccc2c(=O)c1-c1ccc(Cl)cc1,.,-2%,?,5%,-14%,.,2%,2%[46.1 µM]
COc1cccc(NC2c3ccccc3C(=O)N2Cc2ccccc2Cl)c1 (stereo not given),.,-67%,?,-12%,-3%,.,20%,-26%
COc1ccc(C)cc1NC(=O)c1ccc(NC(=O)CC2SC(N3CCCC3)=NC2=O)cc1 (stereo not given),-6.2%,4%,-14%&-14%,2%,-2%,?,-25%,-2%
Cn1c(=O)c2c(nc(Br)n2Cc2c(F)cccc2Cl)n(C)c1=O,-1.7%,-13%,5%,6%,.,5%,.,.
c1ccc(-c2cn(-c3ccccc3)c3[n+]2CCS3)cc1,.,.,?,0%,?,.,5%,?
CCOc1ccccc1C(=O)NCC(=O)N1CCC(C)CC1,.,.,12%,17%,43%[activator],.,11%,18%
CCC(C)NC(=O)C1c2ccccc2Oc2ccccc21 (stereo not given),.,0%,?,0%,-24%,.,-5%,-25%[46.1 µM]
NC(=O)C1CCN(Cc2nnnn2Cc2ccco2)CC1,-0.9%,2%,7%,-2%,5%,-3%,5%,18%
CC(OC(=O)CNC(=O)c1ccco1)C(=O)N(C)c1ccccc1 (stereo not given),.,.,-2%,0%,-3%,.,2%,1%
